nsP2pro primary: CHIKV nsP2 protease inhibition, primary qHTS; FRET peptide cleavage, nsP2pro, fluorescence 1 h; Potency, µM (highest dose often 24.9 µM), for the others: at the highest dose activity change, negative = inhibition, actives largely listed as inhibitors; actives 1.1% (n = 31,000); AID 1964107; active means well fitted inhibition curve with a large enough effect; inconclusive means small, poorly fitted or top-dose-only effect; inactive means no such curve, though single readings can be large or run the other way; also: nearly all actives have a fitted effect of over 60% in size; a reference inhibitor and vehicle were the controls
An asterisk follows results filed as active; ? = inconclusive; & = joins results of further samples; [ ] = another dose, or the depositor's remark. % is scaled to controls: 0 for no effect and ±100 for the full control effect; potency is read from the fitted curve at half-maximal effect. The list is partial; count on the stated rates, not on these rows.

Oc1ccc2nc(CN3CCC(Cc4ccccc4F)CC3)[nH]c2c1
  nsP2pro primary: 33%[activator]
C#CC(=O)N(c1ccc(OC)cc1OC)C(C(=O)NCC(=O)OCC)c1cccs1 (configuration not stated)
  nsP2pro primary: 0.62µM*
CCCN(CCC)C(=O)C(CCC(=O)O)NC(=O)c1ccccc1 (configuration not stated)
  nsP2pro primary: 5%
CN(C)CCOC(=O)C(c1ccccc1)C1(O)CCCC1 (configuration not stated)
  nsP2pro primary: 2%
C#C[C@]1(O)CC[C@H]2[C@@H]3CCC4=CC(=O)CCC4[C@H]3CC[C@@]21CC (some centres not stated)
  nsP2pro primary: -2%
Cc1ccc(NC(=O)C(=O)NC2CC(C)(C)NC(C)(C)C2)cc1
  nsP2pro primary: -5%
CCOCCOC(=O)/C=C/c1ccc(OC)cc1
  nsP2pro primary: -1%
Cc1oncc1C(=O)Nc1ccc(C(F)(F)F)cc1
  nsP2pro primary: -9%
CCN1CC(CCN2CCOCC2)C(c2ccccc2)(c2ccccc2)C1=O (configuration not stated)
  nsP2pro primary: -10%
N#C/C(=C1\SCC(c2ccccc2Cl)S1)n1ccnc1 (configuration not stated)
  nsP2pro primary: 22%
CNC(=O)c1ccc(C)c(-n2c(C)cc(OCc3ccc(F)cc3F)c(Br)c2=O)c1
  nsP2pro primary: 11%
Cc1ccc(Cc2c(C)nc3c(-c4ccccc4)c(C)[nH]n3c2=O)cc1
  nsP2pro primary: -31%
Cc1cccc(C)c1NC(=O)c1cc(S(N)(=O)=O)c(Cl)cc1O
  nsP2pro primary: -7%
CN1CC[C@@H](c2c(O)cc(O)c3c(=O)cc(-c4ccc(C(F)(F)F)cc4Cl)oc23)[C@@H]1CO
  nsP2pro primary: ?
Clc1ccc2c(c1)C1=NCCN1c1c(-c3noc(C4CC4)n3)ncn1-2
  nsP2pro primary: 2%
CC(=O)c1cnc2ccc(-c3cc(Cl)c(O)c(Cl)c3)nc2c1NC1CCC(CN(C)C)CC1 (configuration not stated)
  nsP2pro primary: 10%[5.1 µM]
COc1cc2nccc(Oc3ccc(NC(=O)Nc4cc(C)on4)c(Cl)c3)c2cc1OC
  nsP2pro primary: 58%[activator]
COC(c1ccccc1)(c1ccccc1)[C@H](Oc1nc(C)cc(C)n1)C(=O)O
  nsP2pro primary: 5%
CN1CCC(=C2c3ccccc3CC(=O)c3sccc32)CC1
  nsP2pro primary: 1%
Cc1cc(-c2ncc(CC(=O)Nc3ccc(-c4cnccn4)cn3)cc2C)ccn1
  nsP2pro primary: -6%
CN(C)c1nc(Cc2ccc(NC(=O)c3ccc4ccccc4c3)cc2)nc(Cl)c1CC(=O)O
  nsP2pro primary: 3%
N#CNC(=NCCCCCCOc1ccc(Cl)cc1)Nc1ccncc1
  nsP2pro primary: 24%
CO[C@@H](C(=O)N1Cc2[nH]nc(NC(=O)c3ccc(N4CCN(C)CC4)cc3)c2C1)c1ccccc1
  nsP2pro primary: 51%[activator]
c1ccc(CNCCNCc2ccccc2)cc1
  nsP2pro primary: 22%
O=C(CN1C(=O)C2(CCCC2)NCC1c1cc(F)cc(F)c1)Nc1ccc2c(c1)CC1(C2)C(=O)Nc2ncccc21 (configuration not stated)
  nsP2pro primary: -11%

Another view of two compounds above:
Compound | nsP2pro primary
Cc1ccc(Cc2c(C)nc3c(-c4ccccc4)c(C)[nH]n3c2=O)cc1 | -31%
Cc1cccc(C)c1NC(=O)c1cc(S(N)(=O)=O)c(Cl)cc1O | -7%

Other results follow:
CCCSc1nc(N[C@@H]2C[C@H]2c2ccc(F)c(F)c2)c2nnn([C@@H]3C[C@H](OCCO)[C@@H](O)[C@H]3O)c2n1
  nsP2pro primary: 93%&29%&39%[activator]
O=C(O)CCCCCCCC(=O)O
  nsP2pro primary: -20%&-8%
CCOc1ccc(NC(=S)N2CCC(C(O)(c3ccccc3)c3ccccc3)CC2)cc1
  nsP2pro primary: 2%
O=C(NCC(=O)N1CC[C@H](NC2CCC(O)(c3ccc(-c4ncccn4)cn3)CC2)C1)c1cccc(C(F)(F)F)c1 (some centres not stated)
  nsP2pro primary: -5%
O=C(NCCN1CCOCC1)c1ccc(Cl)cc1
  nsP2pro primary: -3%
CN1CCN(CCCN2c3ccccc3Sc3ccc(S(=O)(=O)N(C)C)cc32)CC1
  nsP2pro primary: 14%
CC(C)[C@@H]1C(=O)N(S(C)(=O)=O)[C@@H]2CCN(C(=O)/C=C/CN3CCCCC3)[C@H]21
  nsP2pro primary: -9%
O=c1cc(N2CCOCC2)nc2c3ccccc3ccn12
  nsP2pro primary: 1%
O=c1[nH]c(-c2ccc(C(F)(F)F)cc2)nc2c1CSCC2
  nsP2pro primary: ?
Cc1nc(C)c(-c2ccc(C3CCC(CC(=O)O)CC3)cc2)nc1C(N)=O (configuration not stated)
  nsP2pro primary: 28%
CCCNCCOc1ccc(NC(=O)c2c[nH]c3c2C(=O)CCC3)cc1F
  nsP2pro primary: 12%
CCCCOC(=O)c1ccc(N)cc1
  nsP2pro primary: -5%
CN(C)CCC[C@@]1(c2ccc(F)cc2)OCc2cc(C#N)ccc21
  nsP2pro primary: 28%
O=C(N[C@H]1CCN(C(=O)c2cc(C(F)(F)F)cc(C(F)(F)F)c2)[C@H](Cc2ccc(Cl)cc2)C1)c1ccnc2ccccc12
  nsP2pro primary: 4%[10 µM]
CCOC(=O)c1cnc2ccc(-c3cncc(NS(=O)(=O)c4ccccc4)c3)cn12
  nsP2pro primary: 0%&-4%
CN1CCN(c2nc(-c3ccc(C(=O)NC4(C(=O)NCC#N)CCCCC4)cc3)cs2)CC1
  nsP2pro primary: 1%
CCn1c(=O)c2c(nc(C=Cc3ccc(OC)c(OC)c3)n2C)n(CC)c1=O
  nsP2pro primary: -3%
Cc1ccc(Nc2c(F)cccc2Cl)c(CC(=O)O)c1
  nsP2pro primary: 3%&-5%
O=S(=O)(NCc1cccc2ccccc12)c1cc(Cl)c(Oc2cccc(N3CCNCC3)c2)s1
  nsP2pro primary: 74%[activator]
COc1ccc(C(=O)n2c(C)c(Cc3cccc(O[C@@H](C)C(=O)O)c3)c3cc(OC(F)(F)F)ccc32)cc1
  nsP2pro primary: 107%[activator]
CCC(C)c1ccc(NC(=O)Cn2cnc3c2c(=O)n(C)c(=O)n3C)cc1 (configuration not stated)
  nsP2pro primary: -3%
CCC[C@H](N[C@H]1CCc2cc(F)cc(F)c2C1)C(=O)Nc1cn(C(C)(C)CNCC(C)(C)C)cn1
  nsP2pro primary: 53%[activator]
CCCCOc1ccc(-c2cncc(C(=O)NCc3cccnc3N3CCOCC3)c2)cc1Cl
  nsP2pro primary: 27%
CCCc1cc(C)[nH]c(=O)c1CNC(=O)c1cc(-c2ccc(N3CCN(C(C)C)CC3)nc2)cc2c1cnn2C(C)C
  nsP2pro primary: 91%[activator]
Cc1nc(C#Cc2ccnc(Cl)c2)c(C)n1-c1ccc(F)cc1
  nsP2pro primary: 4%
Cc1cc(NC(=O)C2CCN(S(=O)(=O)c3ccc4[nH]c(=O)oc4c3)CC2)ccc1Br
  nsP2pro primary: 58%[activator]
Cc1c(C(C)C)c(=O)n(-c2ccccc2)n1C
  nsP2pro primary: -5%

An excerpt from the list above, as a working copy:
O=c1cc(N2CCOCC2)nc2c3ccccc3ccn12
  nsP2pro primary: 1%
O=c1[nH]c(-c2ccc(C(F)(F)F)cc2)nc2c1CSCC2
  nsP2pro primary: ?
Cc1nc(C)c(-c2ccc(C3CCC(CC(=O)O)CC3)cc2)nc1C(N)=O (configuration not stated)
  nsP2pro primary: 28%
CCCNCCOc1ccc(NC(=O)c2c[nH]c3c2C(=O)CCC3)cc1F
  nsP2pro primary: 12%
CCCCOC(=O)c1ccc(N)cc1
  nsP2pro primary: -5%
CN(C)CCC[C@@]1(c2ccc(F)cc2)OCc2cc(C#N)ccc21
  nsP2pro primary: 28%
O=C(N[C@H]1CCN(C(=O)c2cc(C(F)(F)F)cc(C(F)(F)F)c2)[C@H](Cc2ccc(Cl)cc2)C1)c1ccnc2ccccc12
  nsP2pro primary: 4%[10 µM]
CCOC(=O)c1cnc2ccc(-c3cncc(NS(=O)(=O)c4ccccc4)c3)cn12
  nsP2pro primary: 0%&-4%
CN1CCN(c2nc(-c3ccc(C(=O)NC4(C(=O)NCC#N)CCCCC4)cc3)cs2)CC1
  nsP2pro primary: 1%
CCn1c(=O)c2c(nc(C=Cc3ccc(OC)c(OC)c3)n2C)n(CC)c1=O
  nsP2pro primary: -3%
Cc1ccc(Nc2c(F)cccc2Cl)c(CC(=O)O)c1
  nsP2pro primary: 3%&-5%
O=S(=O)(NCc1cccc2ccccc12)c1cc(Cl)c(Oc2cccc(N3CCNCC3)c2)s1
  nsP2pro primary: 74%[activator]
COc1ccc(C(=O)n2c(C)c(Cc3cccc(O[C@@H](C)C(=O)O)c3)c3cc(OC(F)(F)F)ccc32)cc1
  nsP2pro primary: 107%[activator]
CCC(C)c1ccc(NC(=O)Cn2cnc3c2c(=O)n(C)c(=O)n3C)cc1 (configuration not stated)
  nsP2pro primary: -3%
CCC[C@H](N[C@H]1CCc2cc(F)cc(F)c2C1)C(=O)Nc1cn(C(C)(C)CNCC(C)(C)C)cn1
  nsP2pro primary: 53%[activator]
CCCCOc1ccc(-c2cncc(C(=O)NCc3cccnc3N3CCOCC3)c2)cc1Cl
  nsP2pro primary: 27%
CCCc1cc(C)[nH]c(=O)c1CNC(=O)c1cc(-c2ccc(N3CCN(C(C)C)CC3)nc2)cc2c1cnn2C(C)C
  nsP2pro primary: 91%[activator]
